Compound activity from PubChem.
PINK1 modulator: modulators of PINK1 expression | PINK1 immunofluorescence, high-content cytometry, 24 h | Potency, µM (doses to about 76.6 µM), inactives show at the highest dose activation (PINK1 increase), usual class: activators | 410,000 compounds, 0.2% hits; active = well fitted activation curve with a large enough effect; inconclusive = small, poorly fitted or top-dose-only effect; inactive = flat fitted curve, though single readings scatter; cell line not stated here;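 also: potency is read from the fitted curve at half-maximal effect; % of control where 0% means no effect; nearly all actives have a fitted effect of over 65% in size; a mitochondrial uncoupler was the plate control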
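Stable cell line, 250 cells/well, 12 h attachment; compounds pinned at 5 concentrations, 24 h; CCCP control. Fixed with nuclear dye, primary antibodies 12 h at 10 degrees C, secondary plus cell stain; laser-scanning cytometer read.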
D2 PAM: human D2 receptor positive allosteric modulation. P14416. DiscoveRx D2 beta-arrestin cells, luminescence, 90 min; 100% = 57 uM dopamine signal. potentiation, % (concentration not given with the values). 360,000 compounds, 0.23% hits; active = potentiation of 50% or more; inconclusive = 30% to 50%; inactive = 30% or less;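 also: tested on top of an EC20 dose of dopamine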
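PathHunter beta-arrestin assay in DiscoveRx D2 cells. Compounds were added with an EC20 of dopamine (50 nM final) for 90 min at 37 deg C. Luminescence was read 1 h after detection reagent, with 57 uM dopamine as the EC100 control.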
D2 agonist: agonists of human D2 dopamine receptor (beta-arrestin); DiscoveRx PathHunter D2 beta-arrestin, luminescence, 90 min; 100% = 57 uM dopamine signal; activation, % (no concentration beside the values); 360,000 compounds, 0.084% hits; in the data active = activation above about 40%; inconclusive = about 15% to 40%; inactive = below about 15%; also: compound concentration not given in the record; the text of the record calls up to 30% inactive
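Agonist mode: compounds alone added to overnight-plated D2 PathHunter cells for 90 min at 37 C, with 57 uM final dopamine (EC100) defining full response. Beta-arrestin recruitment detected by chemiluminescent reagent, read after 1 h at ambient temperature.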
TRPML1 agonist: agonists of human TRPML1 channel; Q9GZU1; 410,000 compounds, 0.12% hits; activation, % (concentration not given with the values); TRPML1-expressing cells, Ca2+ dye fluorescence, FDSS; host cell line not named in the record; reference of the full effect not given here; in the data active = activation above about 50%; inconclusive = about 30% to 50%; inactive = below about 30%; also: 0% is about no effect; the text of the record puts the active cut at 80%
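Tet-induced TRPML1-DL cells, 1,500 per well, cultured overnight, were loaded with a no-wash Ca2+ dye for 45–90 min. Calcium fluorescence was recorded on the FDSS for 110 s after compound addition, before the EC80 agonist (4 uM 54-4) was added.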
CtBP-E1A inh: CtBP/E1A binding inhibition. AlphaScreen GST-E1A/His-CtBP binding, 1536-well; hits give low values; control for the full effect not named in the record. activity change, % (no concentration beside the values). 340,000 compounds, 0.49% hits. AID 651724; in the data active means activity change below about -65%; inconclusive means about -30% to -65%; inactive means above about -30%; also: % is scaled to controls: 0 for no effect and ±100 for the full control effect
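In 5 uL wells, 23 nL compound meets equimolar GST-E1A and His-CtBP (5X stock 125 nM each) for 2 h, 37 °C. Beads (5X, 50 ug/mL) then 1 h, 37 °C, dark.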
Six1-Eya2 inh: blocks human Six1 binding to Eya2. 360,000 compounds, 0.56% hits. AlphaScreen GST-Six1/His-Eya2 binding, biochemical; hits give low values; control for the full effect not named in the record. Q15475+O00167. activity change, % (concentration not given with the values). AID 651725; in the data active = activity change below about -65%; inconclusive = about -30% to -65%; inactive = above about -30%; also: % is scaled to controls: 0 for no effect and ±100 for the full control effect
Target sequence (O00167 whole entry, looked up): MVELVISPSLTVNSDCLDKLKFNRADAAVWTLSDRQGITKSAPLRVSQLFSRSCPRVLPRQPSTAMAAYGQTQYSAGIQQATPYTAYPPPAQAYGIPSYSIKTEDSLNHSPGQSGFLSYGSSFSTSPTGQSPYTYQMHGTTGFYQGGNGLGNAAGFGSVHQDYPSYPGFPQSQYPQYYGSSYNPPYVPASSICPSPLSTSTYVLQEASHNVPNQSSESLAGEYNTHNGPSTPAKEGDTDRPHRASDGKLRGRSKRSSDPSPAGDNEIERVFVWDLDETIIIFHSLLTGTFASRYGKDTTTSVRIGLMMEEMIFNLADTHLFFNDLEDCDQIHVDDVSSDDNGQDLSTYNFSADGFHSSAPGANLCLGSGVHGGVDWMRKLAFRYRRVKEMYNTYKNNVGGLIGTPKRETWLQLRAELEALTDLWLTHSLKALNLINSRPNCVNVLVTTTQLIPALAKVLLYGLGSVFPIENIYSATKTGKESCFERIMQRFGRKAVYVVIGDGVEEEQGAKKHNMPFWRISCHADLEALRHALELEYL
Target sequence (Q15475 whole entry, looked up): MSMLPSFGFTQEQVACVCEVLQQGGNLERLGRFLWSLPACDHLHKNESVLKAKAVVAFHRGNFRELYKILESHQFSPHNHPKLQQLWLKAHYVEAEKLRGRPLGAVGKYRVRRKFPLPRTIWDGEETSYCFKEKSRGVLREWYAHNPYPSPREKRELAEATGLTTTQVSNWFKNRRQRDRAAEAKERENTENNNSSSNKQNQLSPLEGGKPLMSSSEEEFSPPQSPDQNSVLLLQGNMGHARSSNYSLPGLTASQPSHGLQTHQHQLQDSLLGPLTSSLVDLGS
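Compounds are tested against tagged Six1 and Eya2 proteins bridged by glutathione donor and nickel acceptor beads; after a one-hour incubation at 37 °C without light, AlphaScreen emission is recorded.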
Numbers without * were called inactive; ? = inconclusive; nt = no result given; & = joins results of further samples.

molecule | PINK1 modulator | D2 PAM | D2 agonist | TRPML1 agonist | CtBP-E1A inh | Six1-Eya2 inh
COC(=O)c1ccc(N2C(c3cc(OC)cc(OC)c3)=Cc3ccc(-c4ccc(C(N)=O)cc4)cc3C2CC(=O)C2CC2)cc1 (stereo unspecified) | 0.2% | nt | nt | 0.5 | -13 | 46
COC(=O)c1nc2cc(C)ccn2c1F | -1.7% | 2 | 9.0 | -0.6 | -9 | 7
COc1ccccc1NC(=S)NC1CCCC1 | 0.7% | -20 | -6.1 | -1.1 | nt | 8
O=C(NCCS(=O)(=O)N1CCN(c2ccccc2F)CC1)c1cccc(Br)c1 | 3.6% | -3 | 5.4 | 1.7 | 4 | 1
CCOC(=O)c1nonc1NC(C)=O | -3.3% | 5 | -1.0 | 0.5 | 2 | 7
COc1ccccc1O | 2.1% | -6 | -1.1 | -0.3 | 2 | 7
C=COCCNC(=O)C(=O)NC(C)C | -1.0% | -3 | -1.2 | 0.1 | 12 | 8
CCOC(=O)N1CCN(C(=O)c2cnc(Nc3ccccc3OC)c3ccccc23)CC1 | -1.1% | -9 | -3.9 | 0.1 | 10 | 2
O=C(Nc1ccc(Br)cc1Br)Nc1cccc2[nH]c([C@@H]3O[C@H](CO)[C@@H](O)[C@H](O)[C@H]3O)nc12 | 3.4% | -2 | 0.9 | -0.5 | 4 | -7
CCN(c1ccc(OC)cc1)S(=O)(=O)N1CCCC(C(=O)NCc2cccc(C)c2)C1 (stereo unspecified) | -1.1% | -3 | 2.2 | 0.0 | 3 | 2
CNC(=O)c1[nH]nc2c1CCc1ccccc1-2 | -0.6% | -1 | -1.0 | -0.9 | 8 | 6
Cc1cc(C)n(C(C[N+](=O)[O-])c2ccc(Cl)cc2)n1 (stereo unspecified) | -1.5% | ? | 1.4 | 0.1 | 7 | -8
C=CC(=O)NCCCc1cc(C(C)(C)C)c(O)c(C(C)(C)C)c1 | 2.0% | -4 | 5.7 | 1.6 | 0 | 0
Cc1ccccc1-n1c(C)nnc1SCC(=O)N(C)C1CCS(=O)(=O)C1 (stereo unspecified) | 0.5% | -4 | -0.5 | -0.1 | 5 | 1
COc1ccccc1C(=O)O/N=C(\N)c1ccccn1 | 1.8% | -2 | -1.8 | -1.1 | -4 | 0
Cc1sc2ncnc(N3CCN(C(=O)c4ccco4)CC3)c2c1C | 1.4% | 4 | -2.7 | -0.9 | -12 | -1
O=C(Cn1nnc(-c2ccccc2F)n1)NCc1ccco1 | 0.0% | -6 | -1.6 | 0.1 | 1 | -2
CCOc1ccc(N2CC(C(=O)N3CCCC3)CC2=O)cc1 (stereo unspecified) | -2.1% | 1 | 2.5 | 0.2 | -1 | 36
CC(C)(C)N1C(=O)[C@H]2[C@@H](c3ccc(Br)cc3)N3C(=O)N(c4ccccc4)C(=O)[C@@]3(C)[C@H]2C1=O | -0.4% | -1 | -1.2 | 1.7 | nt | -3
O=C(/C=C/c1ccccc1)Oc1cccc2cccnc12 | 0.1% | -20 | -6.5 | -1.1 | nt | -73*
O=C(CCN=C1NS(=O)(=O)c2ccccc21)OCc1c(F)c(F)c(F)c(F)c1F | 0.7% | 21 | 0.1 | 0.2 | -2 | 0
CC12CC(O)C3C(CCC4=CC(=O)CCC43C)C1CCC2=CCO (stereo unspecified) | -0.8% | -3 | 0.9 | 1.0 | -3 | 6
O=C(O)c1ccc(CNC(=O)c2ccc(S(=O)(=O)N3CCCC3)cc2)cc1 | 1.2% | -9 | -4.8 | -0.1 | -3 | 8
O=C(Nn1cnc2ccccc2c1=O)c1cccc(Cl)c1 | -0.1% | -5 | 4.8 | 0.6 | -19 | -1
Cc1noc(C)c1C(=O)Nc1nnc(-c2ccccc2)s1 | 3.7% | -11 | 0.6 | 0.0 | -2 | 7
Cc1ccc(C(=O)Nc2cc3ccccc3oc2=O)cc1 | 12% | -2 | 1.6 | -0.4 | 6 | 7
CN(C)c1ccc(/C=N/N(CCO)C2=NS(=O)(=O)c3ccccc32)cc1 | 16% | -19 | -9.2 | 20 | nt | -67*
Cc1ccc(CCN2CC(C(=O)NCCCN3CCOCC3)CC2=O)cc1 (stereo unspecified) | -0.2% | -17 | -3.9 | -0.5 | 8 | 5
COc1ccc2c(c1)c(=O)c(C(=O)c1ccc(Cl)cc1)cn2CC(=O)Nc1ccc(F)cc1 | 5.8% | -6 | -4.8 | -0.3 | 1 | 1
CC(=O)OCC(=O)[C@@]12OC3(CCCC3)O[C@@H]1C[C@H]1[C@@H]3CCC4=CC(=O)C=C[C@]4(C)[C@@]3(F)[C@@H](O)C[C@@]12C | -0.3% | 5 | 6.8 | 0.3 | 1 | 1
Cc1cccc(C(C)(C)C)c1OCCOCCN1CCCC1 | -0.5% | -22 | -1.8 | 1.1 | -12 | 14
O=C(C[n+]1cccc(Br)c1)c1cccs1 | -0.6%&2.3% | -2 | 0.5 | -0.2&-0.7 | 16 | 0
O=[N+]([O-])c1cc(C(F)(F)F)c(Cl)cc1N1CCN(CCO)CC1 | -0.1% | -19 | -3.2 | 1.4 | 6 | 6
N#CC1=C(N)Oc2n[nH]c(-c3cccs3)c2C1c1ccsc1 (stereo unspecified) | -1.2% | -9 | -0.2 | 1.1 | -5 | -22
O=C1S/C(=C\c2ccc(Cl)cc2)C(=O)N1CCn1cnnn1 | 1.0% | -7 | -4.7 | 0.2 | nt | -1
Cc1cc(C(=O)COc2cccnc2[N+](=O)[O-])c(C)n1Cc1ccco1 | 4.4% | -7 | -2.0 | -0.8 | -25 | -20
CCN(C(=O)c1cc2c(=O)[nH]c3ccc(C)cc3c2s1)c1ccc(F)cc1 | 6.2% | -1 | 7.8 | 0.9 | -4 | -2
CC(C)C1CC(=O)NC(SCC(=O)Nc2ccc(Br)cc2)=C1C#N (stereo unspecified) | 22% | 9 | 2.4 | 1.2 | 1 | -8
Cc1nnc(Sc2c(N)n(C)c(=O)n(C)c2=O)s1 | -1.2% | -4 | -0.8 | -0.8 | 7 | 3
N#CC1=C(N)SC2(CCCCC2)SC1c1ccccc1 (stereo unspecified) | 3.1% | -17 | -3.5 | -0.5 | 0 | -9
Cc1cc(C)n2nc(SCC(=O)N(CCC#N)c3ccc(F)cc3)nc2n1 | 5.6% | -12 | -3.1 | -1.1 | nt | 6
Cc1nnc(N/N=C/c2ccccc2F)n1N | 0.1% | 2 | ? | 0.8 | -22 | -7
CCN(CC)c1ccc2cc(-c3nnc(-c4ccncc4)o3)c(=O)oc2c1 | ? | -12 | -1.2 | 116* | 4 | 0
COC(=O)C1CCN(C(=O)Nc2ccccc2)CC1 | 0.5% | -2 | 4.8 | 0.4 | 7 | 20
Cc1cccc(C2=NOC(=O)/C2=C\c2ccccc2F)c1 | -1.1% | -5 | -3.7 | -0.1 | nt | 3
O=C1NCCN(Cc2ccoc2)C1CC(=O)N(CCO)Cc1ccccc1 (stereo unspecified) | -1.5% | -2 | 0.4 | 1.2 | -4 | -10
Cc1ccc(S(=O)(=O)N[C@H](C(=O)OCn2nnc3ccccc3c2=O)C(C)C)cc1 | 1.8% | 1 | 0.5 | -0.2 | 3 | 0
C=CCc1ccc(OCCCOc2ccc(C)c(C)c2)c(OC)c1 | 12% | -8 | 1.9 | 1.3 | 72 | 51
C/[N+]([O-])=C\CC(=O)c1ccc(-c2ccccc2)cc1 | 0.3% | -15 | -4.4 | -0.5 | 0 | 4
CCCN(CC(=O)c1cc(C)n(C)c1C)S(=O)(=O)c1cccc(C(F)(F)F)c1 | -1.5% | -19 | -1.6 | 3.5 | -22 | -17

Following part.
molecule | PINK1 modulator | D2 PAM | D2 agonist | TRPML1 agonist | CtBP-E1A inh | Six1-Eya2 inh
CCOc1cccc(-c2cc(C(=O)NN)[nH]n2)c1 | 2.2% | -12 | -0.8 | -0.8 | 2 | 0
O=C(/C=C/c1ccccc1)Oc1cccc(C(=S)N2CCOCC2)c1 | 1.3% | -12 | -5.2 | 1.0 | -5 | -69*
C=CCSc1nnc2c(n1)[nH]c1c(C)cccc12 | nt | -23 | -0.2 | 1.0 | -14 | -10
Cc1ccc(NC(=O)CN2CCc3cc4c(cc3C2C)OCCCO4)cc1C (stereo unspecified) | -1.6% | -38 | -3.4 | 1.5 | -6 | -9
Cc1cc(C)nc(-n2nc(C)cc2NC(=O)COC(=O)CCC(=O)c2cccs2)n1 | 2.0% | 0 | -2.9 | 0.3 | -5 | -9
CSCCC(NC(=O)COc1ccccc1)C(=O)N1CCN(c2ccccc2Cl)CC1 (stereo unspecified) | 2.1% | 3 | -4.0 | 1.4 | 3 | -6
CC(=O)N1c2ccccc2C(=O)OC1c1cccnc1 (stereo unspecified) | -0.4% | 11 | -1.9 | -0.8 | -3 | -9
CCOC(=O)c1c(CSc2ccc(CC)cc2)oc2ccc(O)c(CN(C)C)c12 | -3.7% | -15 | 4.0 | -0.5 | -14 | -2
CC(C)=NNC(=O)CN1C(=O)NC2NC(=O)NC21 (stereo unspecified) | -1.6% | -3 | -4.1 | -1.1 | 4 | 1
CCOC(=O)N1CCC(NC(=O)C(Cc2ccccc2)NC(=O)C2CCCCC2)CC1 (stereo unspecified) | -0.2% | 0 | 1.7 | -0.1 | -5 | 7
O=C(CCc1nc2ccccc2[nH]1)Nc1ccccc1 | -0.6% | -25 | -2.5 | -0.9 | 2 | -7
CC(c1ccccn1)C(C)(O)C(C)c1ccccn1 (stereo unspecified) | 2.4% | 1 | -2.9 | 0.2 | 0 | 1
CCc1nc(N2CCN(C(=O)c3ccco3)CC2)c(C#N)c2c1COC(C)(C)C2 | 1.4% | 6 | 0.2 | 0.4 | -5 | -2
CCCOc1ccc(CNC(=O)CCC(=O)n2ncc3cc(C)ccc32)cc1 | 1.9% | -5 | -3.7 | -0.6 | 1 | 0
C[C@H]1COC(=O)[C@@H](Cc2ccc(F)cc2)CC/C=C/C[C@H](CC(=O)N(CCO)Cc2ccccc2)C(=O)N1 | -0.8% | -9 | -0.2 | -0.1 | -7 | 4
Cc1cccnc1CN1CCN(Cc2nc(C(c3ccccc3)c3ccccc3)no2)CC1 | 2.3% | -11 | -1.0 | 1.1 | 2 | -9

Profiles from above. Values in the order: PINK1 modulator, D2 PAM, D2 agonist, TRPML1 agonist, CtBP-E1A inh, Six1-Eya2 inh
`CC(c1ccccn1)C(C)(O)C(C)c1ccccn1` (stereo unspecified) is listed with 2.4%, 1, -2.9, 0.2, 0, 1
`CCCOc1ccc(CNC(=O)CCC(=O)n2ncc3cc(C)ccc32)cc1` is listed with 1.9%, -5, -3.7, -0.6, 1, 0
`Cc1cccnc1CN1CCN(Cc2nc(C(c3ccccc3)c3ccccc3)no2)CC1` is listed with 2.3%, -11, -1.0, 1.1, 2, -9
`C[C@H]1COC(=O)[C@@H](Cc2ccc(F)cc2)CC/C=C/C[C@H](CC(=O)N(CCO)Cc2ccccc2)C(=O)N1` is listed with -0.8%, -9, -0.2, -0.1, -7, 4
`CCc1nc(N2CCN(C(=O)c3ccco3)CC2)c(C#N)c2c1COC(C)(C)C2` is listed with 1.4%, 6, 0.2, 0.4, -5, -2
